# Bioassay records as filed in PubChem BioAssay.
# UCH37 inh = inhibitors of human UCH37 deubiquitinase, primary screen, biochemical, Ub-AMC cleavage, fluorescence; Ubiquitin carboxyl-terminal hydrolase isozyme L5 (Homo sapiens), Q9Y5K5; purified proteasome/UCH37; inhibition, % (concentration not given with the values); 330,000 tested, 0.33% active; AID 588478, 2011;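 active = mean of two replicates above 20%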;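 note: 0% = compound-free wells with enzyme and 100% = wells lacking proteasome; stock transfer was 100 nL into about 20 µL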
# Target sequence (Q9Y5K5 whole entry, looked up): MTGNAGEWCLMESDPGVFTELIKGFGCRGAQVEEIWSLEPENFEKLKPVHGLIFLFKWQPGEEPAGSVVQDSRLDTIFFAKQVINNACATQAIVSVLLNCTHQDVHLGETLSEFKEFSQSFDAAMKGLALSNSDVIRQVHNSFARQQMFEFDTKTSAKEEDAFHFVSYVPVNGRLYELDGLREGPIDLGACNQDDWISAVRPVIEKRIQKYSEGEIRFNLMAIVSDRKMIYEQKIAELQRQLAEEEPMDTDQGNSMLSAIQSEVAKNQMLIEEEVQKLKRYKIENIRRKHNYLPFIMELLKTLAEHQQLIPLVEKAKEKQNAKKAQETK
#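 Material: human UCH37 enzyme supplied as purified proteasome complex / Amount: 0.15 nM proteasome as dispensed / Buffer or medium: pH 7.4 Tris-HCl (50 mM) with ovalbumin, ATP-MgCl2, DTT / Times: preincubation 30 min, reaction 25 min, room temperature / Technique: AMC fluorescence from Ub-AMC cleavage, excitation 355 nm, emission 460 nm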
# Beta apoptosis = inhibitors of cytokine-induced beta cell apoptosis, primary screen, luminescence; INS-1E cytokine-induced death, ATP luminescence, 48 h; percent of positive-control rescue, neutral wells zero; protection from apoptosis, % (test concentration not listed); 300,000 tested, 0.8% active;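 active = all replicates at 75% or more, or half of them and the mean; inconclusive = half reach 75% but not the mean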;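 note: 0% = cytokine-treated negative control wells and 100% = positive control rescue; higher means more ATP so stronger rescue from cytokine killing; wells of about 40 µL received 100 nL stock; the first replicate is given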
# Ecoli rRNA inh = reduced GFP signal of wild-type E. coli, primary screen, bacterial rRNA inhibitor project, GFP/RFP fluorescence, OD600, single point; GFP signal change (wild-type ribosome), % (test concentration not listed); 350,000 tested, 1.6% active; E. coli WT GFP vs humanized-ribosome RFP mutants, 24 h; stronger effect = lower value; DMSO median 0, no signal -100;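 active = significant combined selectivity score with lowered wild-type GFP, culture density cut under 30%, mutant RFP and density less affected; inactive = any of these conditions unmet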; note: one replicate is shown; some compounds called inactive have numbers as strong as hits
# Ecoli growth = E. coli growth inhibition, primary screen, OD600. Escherichia coli growth, 23 h; stronger effect = lower value. OD600 absorbance (no concentration beside the values). 330,000 tested, 0.21% active;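 active = OD600 absorbance below the run mean of sample wells minus 3.6 SD, in any replicate, cut at about 0.56 in these data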;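 note: stock transfer was 300 nL into about 60 µL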
# FGF22 binding = binders of human FGF22 protein, primary screen, FGF22 synaptogenesis inhibitor project, biophysical, thermal shift, single point; Fibroblast growth factor 22 (Homo sapiens), Q9HCT0; recombinant FGF22 thermal shift, SYPRO orange fluorescence; percent of sucrose octasulfate shift, DMSO zero; calls only at 9.99 µM; 340,000 tested, 1.5% active; AID 651658, 2012;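 active = melting point raised past a set limit in the mean and every replicate; inconclusive = no clear call; three in four hits are not shown here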
# Target sequence (Q9HCT0 whole entry, looked up): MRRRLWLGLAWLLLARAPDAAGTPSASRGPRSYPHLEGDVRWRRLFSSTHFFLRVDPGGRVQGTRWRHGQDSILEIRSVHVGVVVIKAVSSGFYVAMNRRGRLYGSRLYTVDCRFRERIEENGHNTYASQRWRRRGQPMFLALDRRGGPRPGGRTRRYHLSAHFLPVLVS
# T cruzi inh = inhibitors of intracellular T. cruzi growth, primary screen, luminescence, NIH3T3 host cells. 300,000 tested, 1.4% active. T. cruzi beta-gal in NIH3T3, 90 h. inhibition, % (no concentration beside the values);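 active = mean inhibition across valid replicates above about 55%, limit read from the data; inconclusive = mean below that limit but half or more replicates reach it; inactive = mean below it, under half of replicates reach it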;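 note: signal also drops with host cell toxicity which is not excluded here; 0% = plate median of DMSO wells and 100% = zero luminescence signal; higher percent means less beta-gal luminescence so fewer parasites; stock transfer was 50 nL into about 50 µL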
# Bfl-1 A1 inh = caspase 3/7 activation in MEF A1-2A-BIM cells, primary screen, A1 inhibitor project, cell-based, luminescence, HTS; Caspase-Glo 3/7 luminescence, 3 h; percent of clofoctol response, vehicle zero; caspase activation, % (no concentration beside the values); 330,000 tested, 0.066% active; AID 2462, 2010;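 active = over half of replicate activation scores above 10%, or exactly half above 10 with the replicate mean above 10; inconclusive = replicate mean below 10 yet half the replicates above 10; inactive = over half of replicates below 10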;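 note: wells of about 30 µL received 50 nL stock; many hits fall short of the cut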
# MLL AF4-AF9 inh = inhibitors of AF4 peptide binding to AF9, primary screen, biochemical, AlphaScreen, biotin-AF4 peptide, FLAG-AF9, single point | Protein AF-9 (Homo sapiens), P42568 | inhibition, % at 10 µM | 350,000 tested, 0.47% active | AID 651704, 2012;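 active = every replicate reaching a set inhibition limit, whatever the replicate mean, cut at about 25% in these data; inconclusive = mean inhibition reaches that limit but some replicates miss it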;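 note: 0% = plate neutral control median and 100% = total signal loss; the record names both 10 and 1 µM as test concentration; the first replicate is given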
# Target sequence (P42568 whole entry, looked up): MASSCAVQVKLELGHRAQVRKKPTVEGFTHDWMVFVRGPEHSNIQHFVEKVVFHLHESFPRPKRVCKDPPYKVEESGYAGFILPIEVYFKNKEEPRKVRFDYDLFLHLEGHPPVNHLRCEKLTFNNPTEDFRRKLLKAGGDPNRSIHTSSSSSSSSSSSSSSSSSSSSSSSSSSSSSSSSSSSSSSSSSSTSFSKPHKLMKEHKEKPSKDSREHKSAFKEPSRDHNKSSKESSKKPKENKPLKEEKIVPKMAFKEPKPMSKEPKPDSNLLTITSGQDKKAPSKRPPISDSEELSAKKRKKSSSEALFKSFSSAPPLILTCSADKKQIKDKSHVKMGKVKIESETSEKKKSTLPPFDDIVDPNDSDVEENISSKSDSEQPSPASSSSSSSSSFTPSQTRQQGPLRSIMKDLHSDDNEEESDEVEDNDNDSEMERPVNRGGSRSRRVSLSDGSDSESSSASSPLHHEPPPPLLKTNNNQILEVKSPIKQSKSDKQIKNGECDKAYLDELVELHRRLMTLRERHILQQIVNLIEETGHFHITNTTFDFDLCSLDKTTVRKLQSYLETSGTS
# Ecoli rRNA inh OD600 = further read-out of Ecoli rRNA inh, marked with its call; OD600 change, %; measured here: OD600 growth;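 optical density of the mix in the first replicate; 0 = DMSO median and -100 = no signal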
# Ecoli rRNA inh RFP = also measured in Ecoli rRNA inh; calls as there; RFP signal change, %; measured here: RFP humanized mutant strains;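 first replicate; 0 = DMSO median and -100 = no signal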
# The depositor's hits bear a star; i = inactive; ? = inconclusive; · = not tested or not shown; + = active, no number. This is a subset. The share of hits here may be higher or lower than overall.
SMILES,UCH37 inh,Beta apoptosis,Ecoli rRNA inh,Ecoli rRNA inh OD600,Ecoli rRNA inh RFP,Ecoli growth,FGF22 binding,T cruzi inh,Bfl-1 A1 inh,MLL AF4-AF9 inh
CCOc1cc(C#N)c(NC(=O)CSc2nnnn2-c2ccc(OC)cc2)cc1OCC,-2.9,0,·,·,·,0.72,·,11,0.3,·
Cc1ccc(S(=O)(=O)NC(=O)NC(C)Cc2ccccc2)cc1 (stereo not given),1.9,-9,-1,10,-2.1,0.71,i,0,0.7,-2.8
O=C(O)C1C2C=CC(C2)C1C(=O)NC1CCS(=O)(=O)C1 (stereo not given),1.8,0,·,·,·,0.78,·,-11,0.0,·
CSc1ncc(-c2ccc(Cl)cc2)[nH]1,0.8,2,-17,-15,-3.7,0.62,·,6,-4.1,-1.5
O=S(=O)(c1cc(Cl)ccc1Cl)N1CCCCC1,1.0,-8,·,·,·,0.72,·,12,0.3,·
Cc1cccc(/C=N/N(CCO)C2=NS(=O)(=O)c3ccccc32)c1,·,8,-46,-73,-7.4,·,i,13,-0.7,0.5
CC(C)OC(=O)Cn1nc(C(F)(F)F)c2c1CCCC2,-1.4,-4,3,9,-0.4,0.73,i,-8,-0.1,-1.0
C[C@@H](C(=O)NCCc1c[nH]c2ccccc12)[C@@H]1C[C@@]1(C)[C@@H](NC(=O)OCc1ccccc1)c1ccccc1,1.6,11,-1,-7,7.8,·,i,·,0.5,-46
O=C(Nc1cccc(S(=O)(=O)N2CCCCC2)c1)Nc1ccc(Cl)cc1Cl,3.7,29,-44,-66,-0.9,0.71,i,45,?,-2.2
Cc1cc(C)c(NC(=S)N(CCCN2CCN(C)CC2)Cc2cccs2)c(C)c1,4.4,-3,-3,7,0.4,0.68,i,24,2.1,4.6
Cc1ccc(S(=O)(=O)NCC(=O)N(CC(=O)NCC2CCCO2)CC2CCCO2)cc1 (stereo not given),0.4,-1,6,4,-1.1,0.71,i,-8,-0.4,0.4
COc1ccc(N2CCN(c3nc(NC(C)(C)C)nc(N4CCCCC4)n3)CC2)cc1,4.1,·,·,·,·,0.78,·,36,0.3,·
CCCCOc1ccc(-c2cc(C(=O)NNC(=S)NCC)c3ccccc3n2)cc1,-57,80*,·,·,·,0.74,i,-19,-8.8,18
Cc1nn(C)cc1C1C2=C(CC(C)(C)CC2=O)N(c2ccccc2)C2=C1C(=O)CC(C)(C)C2,-53,-3,·,·,·,0.68,·,27,1.0,·
Cc1cccc(NC(=O)Cn2cnc3c(cnn3-c3ccc(F)cc3)c2=O)c1C,5.8,-5,6,5,0.5,0.72,i,-8,0.2,0.4
Cc1ccc(C)n1-c1ccc(C(=O)Nc2ccccc2F)cc1,-0.9,-10,9,-7,1.0,0.73,i,6,-1.9,-2.3
CCC(=O)Nc1ccc(-c2cc3ccccc3oc2=O)cc1,-4.8,-3,17,17,7.5,0.7,i,-8,-2.9,-6.3
CCCCC(=O)OCC(=O)c1ccc(OCC)cc1,1.3,-1,·,·,·,0.65,·,7,-0.2,·
CCc1c(SCCC(=O)O)nc2ccccc2c1C,3.7,-3,-16,-18,1.0,0.71,i,1,1.4,-5.2
COCCn1c(N2CCN(c3ccc(OC)cc3)CC2)nc2c1c(=O)n(C)c(=O)n2C,0.7,2,·,·,·,0.73,·,-1,0.8,·

# Next part; the last 3 above are carried over.
SMILES,UCH37 inh,Beta apoptosis,Ecoli rRNA inh,Ecoli rRNA inh OD600,Ecoli rRNA inh RFP,Ecoli growth,FGF22 binding,T cruzi inh,Bfl-1 A1 inh,MLL AF4-AF9 inh
CCCCC(=O)OCC(=O)c1ccc(OCC)cc1,1.3,-1,·,·,·,0.65,·,7,-0.2,·
CCc1c(SCCC(=O)O)nc2ccccc2c1C,3.7,-3,-16,-18,1.0,0.71,i,1,1.4,-5.2
COCCn1c(N2CCN(c3ccc(OC)cc3)CC2)nc2c1c(=O)n(C)c(=O)n2C,0.7,2,·,·,·,0.73,·,-1,0.8,·
CS(=O)(=O)Nc1ccc(C(=O)NCC2CCCO2)cc1 (stereo not given),0.6,-5,·,·,·,0.73,·,-12,0.3,·
O=C(COc1ncnc2ccccc12)Nc1cccc([N+](=O)[O-])c1,·,-2,5,7,3.5,·,i,-4,-0.7,0.7
C=CCSC1=N/C(=C\c2ccc(C(=O)O)cc2)C(=O)S1,6.2,-8,16,13,-4.5,0.63,i,-6,0.3,-18
CN(C)c1ccc(/C=N\NC(=O)c2cccc3cc[nH]c23)cc1,·,-7,7,14,1.6,·,·,-13,-6.5,2.4
CCOC(=O)N1CCC(NC(=O)C2=C(C)C(=O)OC23CCC(C)CC3)CC1 (stereo not given),2.2,1,2,3,-1.4,0.7,i,-4,0.9,4.1
CCN(CC(=O)NCc1cccs1)C(=O)/C=C/c1cccc(OC)c1OC,-0.1,1,2,6,-0.6,0.69,i,-10,-0.2,-10
COc1ccc([C@H]2CC(=O)C=C(c3ccc4ccn(C)c4c3)C2)cc1,1.1,0,1,-14,-1.7,·,·,·,-0.5,1.1
CN(C)c1ccc(CNC(=O)CN2C(=O)COc3ccc(S(=O)(=O)N4CCCC4)cc32)cc1,2.9,4,-27,-36,-8.3,0.69,i,5,0.2,6.8
Cn1c(CNC(=O)C(C)(C)C)nc2ccccc21,1.5,-7,·,·,·,0.7,·,-7,0.0,·
O=C(CN1CCOCC1)Nc1c2c(nc3ccccc13)N(Cc1ccccc1)CC2,-46,6,·,·,·,0.7,·,-11,0.9,·
Nc1cc2c(cc1[N+](=O)[O-])OCCO2,7.3,-1,·,·,·,0.64,·,4,-0.7,·
CCOc1ccccc1N(CC(=O)O)S(=O)(=O)c1ccccc1,-1.6,0,·,·,·,0.7,·,·,0.2,·
Cc1cc(OCC(=O)c2cccc(C(F)(F)F)c2)n2cnnc2n1,1.6,-4,-5,4,-0.3,0.64,i,1,2.0,-1.9
COc1ccc(C(=O)Nc2cc3c(cc2Cl)OCCCO3)cc1,-0.5,-1,·,·,·,0.7,·,6,-1.3,·
COC(=O)CCCC(=O)N1CCC(CO)(CCc2ccccc2)CC1,0.0,-3,16,6,3.4,0.64,i,-8,0.3,-2.9
CCOc1nc(NCCN2CCOCC2)nc(NC(C)C)n1,1.1,-2,·,·,·,0.67,·,-2,0.8,·
CCC(NC(=O)c1ccccc1NC(=O)c1ccc(C)cc1)C(=O)O (stereo not given),0.7,1,·,·,·,0.7,·,-2,-1.4,·
COc1cc(C(F)(F)F)ccc1C(=O)NCCc1ccco1,1.3,-7,-9,-3,-0.5,0.64,i,-9,0.9,-2.4
Cc1nc2c(c(=O)c3ccccc3n2C)c(=O)n1-c1ccc(F)cc1,2.3,0,·,·,·,0.64,i,-21,-1.2,0.2
Cc1ccccc1OCC(=O)NCC(=O)OCC(=O)c1ccc2ccccc2c1,0.6,-5,·,·,·,0.68,·,-8,0.4,·
COc1ccc(NC(=O)C(C)Sc2ccccc2)cc1 (stereo not given),2.6,·,·,·,·,0.76,·,2,-0.1,·
Cc1cccc(OCC(=O)Nc2nnc(S(=O)(=O)N3CCCCC3)s2)c1,1.0,3,6,3,-0.3,0.7,i,3,-0.1,2.2
CCOC(=O)Cc1c(C)nc2c(-c3ccccc3)c(C)nn2c1C,1.1,1,·,·,·,0.72,·,13,0.3,·
CCc1cccc(NC(=O)C2CCCN2C(=O)Nc2ccc(C)cc2)c1 (stereo not given),6.7,-6,11,13,3.9,0.67,i,-8,0.1,1.9
COc1ccc(S(=O)(=O)NCCS(=O)(=O)N2CCN(c3ccccc3)CC2)cc1,4.9,·,2,5,-2.3,0.64,i,-12,0.8,-17
Cc1ccc(S(=O)(=O)N2CCN3CCCC3C2)cc1 (stereo not given),0.2,-1,7,11,-0.4,0.65,i,-6,-0.5,-19
O=C(CSc1nnc(-c2ccc(C(F)(F)F)cn2)o1)Nc1ccccc1Cl,1.6,4,0,13,-1.7,0.68,i,-13,1.1,-1.5
c1cncc(CSc2ccc(-c3ccc4c(c3)OCO4)nn2)c1,·,25,-6,-7,-1.3,·,i,19,-1.3,-0.5
O=C1C2C(C(=O)N1CC1CCCO1)C1C=CC2C12CC2 (stereo not given),-0.7,-1,·,·,·,0.69,·,2,0.2,·
O=C(NNC(=O)C1CCN(S(=O)(=O)c2c(Cl)cccc2Cl)CC1)c1ccccc1O,-16,19,-13,-35,-0.9,0.69,i,15,0.2,-4.5
COc1cccc(C2(c3cccc(OC)c3)CC2C(=O)Nc2ccccc2Cl)c1 (stereo not given),0.7,-1,-13,-6,-4.3,0.65,i,30,0.0,-0.4
CN1CCN(c2ccc(NC(=O)C(C)(c3ccccc3)c3ccccc3)cc2)CC1,3.2,5,3,9,2.5,0.64,i,2,0.6,17
CCCCCC(=O)N(CN1C(=O)CCC1=O)c1ccccc1,2.8,-3,·,·,·,0.73,·,-21,-0.6,·
Cc1cc(C(=O)CSc2nn3c(=O)c(C(C)(C)C)nnc3s2)c(C)n1C1CC1,9.0,-3,-13,-14,3.1,0.68,+,23,0.6,7.1

# Three entries from above, reformatted:
> CCC(NC(=O)c1ccccc1NC(=O)c1ccc(C)cc1)C(=O)O (stereo not given)
  UCH37 inh = 0.7
  Beta apoptosis = 1
  Ecoli rRNA inh = ·
  Ecoli rRNA inh OD600 = ·
  Ecoli rRNA inh RFP = ·
  Ecoli growth = 0.7
  FGF22 binding = ·
  T cruzi inh = -2
  Bfl-1 A1 inh = -1.4
  MLL AF4-AF9 inh = ·

> COc1cc(C(F)(F)F)ccc1C(=O)NCCc1ccco1
  UCH37 inh = 1.3
  Beta apoptosis = -7
  Ecoli rRNA inh = -9
  Ecoli rRNA inh OD600 = -3
  Ecoli rRNA inh RFP = -0.5
  Ecoli growth = 0.64
  FGF22 binding = i
  T cruzi inh = -9
  Bfl-1 A1 inh = 0.9
  MLL AF4-AF9 inh = -2.4

> Cc1nc2c(c(=O)c3ccccc3n2C)c(=O)n1-c1ccc(F)cc1
  UCH37 inh = 2.3
  Beta apoptosis = 0
  Ecoli rRNA inh = ·
  Ecoli rRNA inh OD600 = ·
  Ecoli rRNA inh RFP = ·
  Ecoli growth = 0.64
  FGF22 binding = i
  T cruzi inh = -21
  Bfl-1 A1 inh = -1.2
  MLL AF4-AF9 inh = 0.2
